# AID504770: E. coli YBA685 growth inhibition, screen for V. cholerae RctB inhibitors; E. coli YBA685 rctB-dependent plasmid, OD600 growth, 3 h; stronger effect = lower value; z-score (test concentration not listed); hit rate 0.27% among 130,000; AID 504770;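 active means z-score under -2 on both plates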;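 further: wells of about 30 µL received 100 nL stock; score is relative to mean and SD of the test wells; the first replicate is given; strong numbers were not always called active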
# Ba CapD inh: blocks the Bacillus anthracis CapD enzyme | purified CapD enzyme, fluorescence intensity read-out; stronger effect = lower value; some hits fall short of the stated cut | z-score (test concentration not listed) | hit rate 0.23% among 140,000;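 active means z-score under -4 in either of two replicates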;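 further: stock transfer was 100 nL into about 40 µL; score is relative to mean and spread of the plate; one replicate is shown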
# * hit, by the source's call; i = inactive; x = no result given; & = joins results of further samples.
# The line under a structure holds: Ba CapD inh, AID504770
O=C(c1[nH]c2ccccc2c1Sc1ccc(Cl)cc1)N1CCCC1
  0.055, -0.55
S=C(Nc1cccnc1)Nc1ccccc1N1CCCCC1
  x, 2.5
Cc1ccc(CC2C(=O)N(c3ccc(C(=O)O)cc3)C(=O)C2C)cc1 (configuration not stated)
  -0.45, -0.85
O=C(Cn1c(=O)n(Cc2ccccc2)c(=O)c2ccccc21)NCCC1=CCCCC1
  0.48, -0.8
CCCNc1sc(S(=O)(=O)CC)nc1S(=O)(=O)c1ccc(C)cc1
  x, 0.15
Cc1ccc(SC(=O)c2c(C)noc2-c2cc(C)on2)cc1
  9.9, 1.5
O=C(O)C1C2C=CC(O2)C1C(=O)Nc1nc(-c2ccccc2)cs1 (configuration not stated)
  -0.045, -0.1
COc1ccc2c(c1)CCc1cn[nH]c1-2
  -0.065, -0.3
CCC1=NN(C(=O)Cc2ccc([N+](=O)[O-])cc2)C(O)(c2ccc(Br)cc2)C1 (configuration not stated)
  -0.35, x
CC(Sc1ccccc1)C(=O)NN=C(c1ccccc1)c1ccccc1 (configuration not stated)
  -0.11, x
CCn1c(Cc2ccccc2)nc2ccccc21
  -0.81, -0.7
CCN(CC)C(=O)c1sc(NC(=S)N2CCN(Cc3cnn(CC)c3C)CC2)c(C(=O)OC)c1C
  -1.7, -1.2
COc1ccc(C2CC(=O)C3=C(C2)Nc2ccccc2NC3c2cccc3ccccc23)cc1OC (configuration not stated)
  -0.79, x
O=C(OCC(=O)N1CCCCC1)c1cnc(Cl)c(Cl)c1
  -0.15, -0.15
O=C(Oc1ccccc1OC(=O)c1ccccc1)c1ccccc1
  -0.54, -0.35
Cc1ccc(C)c(NC(=O)CN(C)c2ncccn2)c1
  x, 0.3
C=C1C2C[C@@]3(C4CC5C6(C3C[C@@H]2O)[C@@H](O)CC[C@@]5(C)CN(CC)[C@H]46)[C@@H]1O (some centres not stated)
  -0.21, x
CC(C)(C)c1ccc(N/C=C(\C2OC(=O)c3ccccc32)[N+](=O)[O-])cc1 (configuration not stated)
  -0.08, x
CC(C)c1ccc(OCC(=O)c2ccc(O)cc2O)cc1
  -0.2, 0.7
Cc1ccc(S(=O)(=O)CCS(=O)(=O)c2cccs2)cc1
  -0.19, 0
C#CCn1c(O)c(N=NC(=O)Cn2nnc(-c3ccccc3)n2)c2cc(Br)ccc21
  x, 0.15
CCCCCC#CCOC(=O)N1CCN(c2ccccc2Cl)CC1
  0.15, x
CCOC(=O)c1sc(NC(=O)c2cc(C(C)C)on2)c(C(=O)OCC)c1C
  1.1, 0.25
COc1ccc(Cl)cc1Nc1nc(N)nc(CC(=O)CSc2nc3ccccc3s2)n1
  -0.35, -0.25
Cc1cc(NC(=O)CSc2nc3ccccc3c(=O)n2CCCC(=O)N2CCN(c3ccccc3)CC2)no1
  -0.56, x
CSC(=S)Nc1ccc(C)cc1
  -0.24, -0.9
O=C(NCc1ccccc1)c1cccnc1NC1CCCCC1
  20, 1.4
CCOC(=O)c1c(C)oc2ccc(OC(=O)Nc3ccc(Cl)cc3)cc12
  x, -0.7
N#Cc1ccc(CC(C#N)(Cc2ccc(C#N)cc2)c2nnc3n2CCCCC3)cc1
  x, 0
O=C(CSc1nnnn1-c1ccccc1)n1c2ccccc2c2ccccc21
  -1.4, -0.2
O=S(=O)(Cc1ccc(F)cc1)Cc1noc(C2CCC2)n1
  0.58, 0.3
O=C(Cc1ccccc1)N1CCN(Cc2ccccc2)CC1
  0.015, x
COc1ccccc1NC(=O)CN1CCN(C/C=C/c2ccccc2)CC1
  0.46, -0.15
O=C(NCCN1CCOCC1)c1nn2c(C(F)(F)F)cc(-c3ccco3)nc2c1Br
  0.79, x
Cc1ccc(S(=O)(=O)/C(C#N)=C/C2=Cc3ccccc3OC2)cc1
  -2.4, 0.1
C=CCOc1ccc(/C=C2\SC(=N)N(c3nccs3)C2=O)cc1OCC
  -1.4, x
CCC(NS(=O)(=O)c1ccc(C)cc1)C(=O)N1CCCCC1 (configuration not stated)
  -0.65, -0.6
Cc1ccc(CN(C)C)c(OC(=O)N(C)C)c1
  0.05, -0.4
CC[N+](C)(C)c1cccc(O)c1
  0.005&33, 0
CC(=O)Oc1ccc2occ(C(=O)c3ccc(F)cc3)c2c1
  2.5, -0.65
Cc1ccccc1N=C1C(=O)N(CN2CCCCC2)c2ccc(Br)cc21
  0.065, -0.5
COc1cccc(C2NCCc3ccccc32)c1 (configuration not stated)
  x, -0.6
Cn1c(N)c(C(=O)COC(=O)CC2CC3CCC2C3)c(=O)n(C)c1=O (configuration not stated)
  x, -0.05
Cc1ccc(S(=O)(=O)CC(N)=O)cc1
  0.17, -0.5
CC(C)[N+](C)(CCC(C(N)=O)(c1ccccc1)c1ccccc1)C(C)C
  -0.5&-0.32, 0.2
CCCn1c2ccc(F)cc2c2nnc(SCCN(CC)CC)nc21
  0.41, -0.1
COc1ccc(C(=O)CNc2ccccc2CO)cc1
  -0.28, -1.1
CN(C)S(=O)(=O)N(CC(=O)N1CCCC1)c1ccccc1
  0.085, 0.95
O=C(CN1CCOCC1)Nc1nc2ccc(Cl)cc2s1
  x, 0.2
COC(=O)C(=C/C(C)=C/c1ccco1)C(=O)OC
  -2.1, -0.1
CC(C)c1ccccc1NC1=NCCS1
  -0.33, 0.35
Cc1ccc(NC(=O)C2Cc3ccccc3O/C2=N\O)cc1C (configuration not stated)
  0.3, 1
CCCCCCC(=O)Nc1cccc(C(=O)N/N=C/c2ccc(SC)cc2)c1
  9.7, x
COc1ccc(/C=[N+](/C)[O-])cc1
  -0.34, -0.75
CC(C)(C)c1cc2cc(N(Cc3cccc(Cl)c3)C(=O)c3ccccc3C(F)(F)F)ccc2[nH]1
  -0.36, x
COc1ccc(-c2nc(CS(=O)CC(=O)NC3CCCc4ccccc43)c(C)o2)cc1OC (configuration not stated)
  -0.21, -1.4
S=c1ccc2ccccc2[nH]1
  x, -0.75
CCOC(=O)c1c(N=Cc2ccc(OC)c(OC)c2Cl)n[nH]c1C
  1.4, 0.6
CCCCc1nc(SCC(=O)Nc2ccc(Br)cn2)n[nH]1
  0, x
O=C(OCc1cccc2ccccc12)C1CCN(c2nc3ccccc3o2)CC1
  x, 0

# More records.
# The line under a structure holds: Ba CapD inh, AID504770
Cc1ccc(S(=O)(=O)N2CCN(c3ncnc4sccc34)CC2)cc1C
  x, -0.6
COc1cc(C2C(C#N)=C(N)Oc3n[nH]c(-c4ccc5c(c4)OCO5)c32)ccc1OC(=O)c1cccs1 (configuration not stated)
  0.005, x
O=C(c1ccccc1)N1CCN=C1SCc1ccccc1
  -0.51, 0.25
Cn1c(SCc2ccc(F)cc2)nc2ccc(C(=O)N3CCc4ccccc43)cc21
  0.49, -0.55
O=c1ccc2cc(S(=O)(=O)NCc3ccccc3)ccc2o1
  0.075, -0.6
O=C(CCCc1c[nH]c2ccccc12)Nc1nnc(-c2ccc(Cl)cc2)o1
  x, -0.6
Cc1cc2nc(C)n(CCCNC(=O)Nc3ccc(F)cc3)c2cc1C
  0.23, -0.35
O=S(=O)(CCN1CCOCC1)c1ccc(Cl)cc1
  0.38, x
COc1cccc(NC(=O)Nc2ncccc2C)c1
  0.3, -0.55
O=C(c1cc(=O)n2c(nc3ccccc32)s1)N1CCN(c2ccccc2)CC1
  0.04, 0.45
Cc1csc(C(C#N)C(=O)CSc2nnc(NC3CC3)s2)n1 (configuration not stated)
  x, 0.05
COc1ccc(CCNC(=O)CCN2C(=S)NC(C)(C)CC2C)cc1OC (configuration not stated)
  0.45, x
CCN(CC)c1nc(C)cc(COC)c1C#N
  62, -0.15
NC(=O)CN1c2ccccc2-c2ccccc2S1(=O)=O
  x, 0.05
Nc1cccc2c1C(=O)N(Cc1ccccc1)C2=O
  x, -1.1
O=S(=O)(c1ccc(Cl)cc1)N(C1CC1)C1CCN(Cc2ccccc2)CC1
  -0.3, x
CCOc1ccc2nc(C(=O)N3CCCCCC3)sc2c1
  x, -0.75
CC(C1CC2CCC1C2)n1c(-c2cccs2)n[nH]c1=S (configuration not stated)
  x, 0.75
Cc1ccc2cnn(CC(=O)NCc3cccnc3)c2c1
  0.44, -0.55
CCc1nc2c(sc3nc4c(cc32)COC(C)(C)C4)c(=O)o1
  0.94, x
CCCCn1c(=O)[nH]c2ccccc21
  0.56, -0.15
Cc1cc2c(cc(C(=O)OC(C(=O)NCC3CCCO3)C(C)C)n2C)o1 (configuration not stated)
  x, 0.15
O=C(NCc1ccco1)c1ccc(N2CC3CC(C2)c2cccc(=O)n2C3)c(NC(=O)c2ccc(Br)o2)c1 (configuration not stated)
  -0.18, x
N#Cc1ccc(N2C(=O)C3C4C=CC(O4)C3C2=O)cc1 (configuration not stated)
  0.18, x
Cc1ccc(N(CC(N)=O)S(=O)(=O)c2ccccc2)cc1
  0.53, 0.85
Cc1onc(-c2c(Cl)cccc2Cl)c1NC(=O)O/N=C/c1ccccc1[N+](=O)[O-]
  -0.01, x
CCCC(=O)N/N=C/c1ccc(Br)cc1
  x, -1.4
CCc1cc2c(=O)c(-c3ccc4c(c3)OCO4)c(C(F)(F)F)oc2c(CN(C)C)c1O
  -4*, x
Cc1cc(N2CCN(C3CCCCC3)CC2)n2c(nc3ccccc32)c1C#N
  -0.025, x
Cc1nc(-c2ccc(-c3noc(C)n3)cc2)no1
  -0.02, -0.65

# One compound at a time, as listed above. Order of screens: Ba CapD inh, AID504770
# Results for `O=S(=O)(CCN1CCOCC1)c1ccc(Cl)cc1` : 0.38, x
# Results for `CCN(CC)c1nc(C)cc(COC)c1C#N` : 62, -0.15

# Further results follow:
# The line under a structure holds: Ba CapD inh, AID504770
Cc1ccc2nc(-c3ccc(C#N)cc3)cn2c1
  32, -0.4
CC(=O)Oc1ccc(N(C(C)=O)S(=O)(=O)c2ccccc2)cc1
  -4.2*, -0.75
CCOCN1C(=O)c2cccc3cccc1c23
  i, -0.25
O=C(c1ncc[nH]1)c1ccco1
  -2.6, -0.25
O=S(=O)(c1cccc2cccnc12)N1CCN(Cc2ccccc2)CC1
  -0.6, -1.2
Cc1ccc(C(=O)CSc2n[nH]c(C(F)(F)F)n2)cc1
  13, -0.6
CSc1nc(Cl)cc(N2CCN(c3ccccc3Cl)CC2)n1
  0.22, x
Cc1cc(N2CCCCC2)nc2ccc(NC(=O)CCC3CCCC3)cc12
  -0.49, x
Cc1cccc(-c2nsc(SCC(=O)N3CCCCC3)n2)c1
  -0.05, 0
COCCNC(=O)c1ccc2snnc2c1
  0.04, 0.9
COc1cc(Br)cc2cc(C(=O)NCc3ccc4c(c3)OCO4)c(=O)oc12
  0.59, 0.75
COc1ccc(CNC(=O)CN2C(=O)C(C)=C(c3ccc(C)cc3)S2(=O)=O)cc1
  -0.32, -0.8
Cc1ccc(Oc2ncccc2C(N)=O)cc1
  -0.4, x
Cc1ccc(NC(=O)NC(=O)Cn2nnc(-c3ccc(Cl)cc3)n2)c(C)c1
  x, -0.2
O=C(NCc1cccs1)c1ccc2nccnc2c1
  0.85, 2.7
Cc1cccc(-c2nc3s/c(=C\C4=Cc5ccccc5OC4)c(=O)n3n2)c1
  -0.33, 2.5
COC(=O)CN1C(=O)c2ccccc2NC1c1ccc(OC)cc1 (configuration not stated)
  x, -0.6
FC(F)(F)c1cnc(Cc2ccc(Oc3ccc(Cl)nn3)cc2)c(Cl)c1
  -0.49, x
N#C/C(=C\c1cn(-c2ccccc2)nc1-c1ccccc1Cl)C(N)=O
  x, -0.7
CCCC1CCCCNC1=O (configuration not stated)
  0.12, -0.65
Cc1nc(C(=O)Nc2ccc(F)c(F)c2)nn1-c1cc(Cl)ccc1Cl
  0.37, x
CC1=C(C(=O)OCC(F)(F)F)C(c2ccc3c(c2)OCO3)NC(=O)N1 (configuration not stated)
  -0.25, 0
C/C=N/NC(=O)COc1ccc(Cl)cc1
  0.42, -0.6
O=C1NC(=S)N/C1=C\c1cc(Br)cc(Br)c1O
  -1.3, x
CCOC(=O)C1(C(F)(F)F)N=C(c2ccccc2F)OC(N(C)C)=N1 (configuration not stated)
  -0.12, x
Cc1ccc(Sc2nc(SCc3ccccc3)nc3ccsc23)cc1
  0.18, x
Cc1cc2nc3s/c(=C/c4ccc(-c5ccccc5C(=O)O)o4)c(=O)n3c2cc1C
  -2.5, x
CC(=O)N(c1nnc(-c2ccc(C)cc2)s1)C1CCCC1
  x, -0.05
O=C(O)CCc1ccc(-c2ccccc2)n1NC(=O)c1ccccc1Br
  77, 0.65
O=C1C(=O)N(CCN2CCOCC2)C(c2ccc(F)cc2)/C1=C(\O)c1ccc(Cl)cc1 (configuration not stated)
  -0.42, x

# 3 of the compounds above, in CSV form:
canonical_smiles,Ba CapD inh,AID504770
O=C(c1ncc[nH]1)c1ccco1,-2.6,-0.25
CC(=O)N(c1nnc(-c2ccc(C)cc2)s1)C1CCCC1,x,-0.05
FC(F)(F)c1cnc(Cc2ccc(Oc3ccc(Cl)nn3)cc2)c(Cl)c1,-0.49,x

# In another format: entries from further up.
Compound | Ba CapD inh | AID504770
CSc1nc(Cl)cc(N2CCN(c3ccccc3Cl)CC2)n1 | 0.22 | x
Cc1cc(N2CCCCC2)nc2ccc(NC(=O)CCC3CCCC3)cc12 | -0.49 | x
Cc1cccc(-c2nsc(SCC(=O)N3CCCCC3)n2)c1 | -0.05 | 0

# Carrying on:
# The line under a structure holds: Ba CapD inh, AID504770
O=C(O)c1ccccc1-c1ccc2cnccc2n1
  -0.46, x
CCOc1cccc(=[O+]CC)c2c(C)oc(C)c12
  -0.4, 0.05
COC(=O)C1=C(C)NC(=O)/C1=C\c1ccc2c(c1)OCO2
  -1.1, 0.15
Cc1ccc(Cn2nnc(-c3cc(Cl)cc(Cl)c3)n2)cc1
  -0.39, 0.65
